# Compound activity deposited in PubChem by several laboratories.
# Arbovirus inh = antivirals against arbovirus infection, primary screen, cell-based, full library, 10K replicate subset | arbovirus infection cell-based antiviral screen | inhibition, % at 10 µM | hit rate 0.37% among 200,000 | AID 1251, 2008;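 active = inhibition from about 30%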;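 also: bluetongue infection of BSR cells; cell survival read as ATP light after 72 h; 0% = infected wells without compound and 100% = uninfected wells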
# Mtb bLac sens = beta-lactam sensitization of Mtb H37Rv, H37Rv; M. tuberculosis H37Rv growth with meropenem, percent inhibition; hits of this screen are not shown here; inhibition, % at 25 µM; hit rate 0.27% among 330,000;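 active = about 74% or more and at least 40 points above the plate without the antibiotic, then above 30% in a dose series; inconclusive = first-round hits that could not be retested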;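 also: growth measured after seven days incubation then overnight dye step; 0% = bacteria only wells and 100% = bacteria with antibiotic; twin plates without the antibiotic show which effects depend on it; some results filed as inactive read as strong as hits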
# Mtb growth = M. tuberculosis H37Rv growth inhibitors, H37Rv strain (AID 1626); M. tuberculosis H37Rv growth inhibition; higher % means a stronger effect; inhibition, % at 10 µM; hits with a dose series show IC50 in µM; hit rate 0.95% among 220,000;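 active = confirmed in a dose series; inconclusive = inhibition above 80% but not taken into the dose series; inactive = below 80% or under 30% at every dose of the series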;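 also: bacteria incubated seven days before Alamar blue readout; 0% = bacteria only wells and 100% = bacteria with antibiotic wells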
# YopH inh = YopH tyrosine phosphatase inhibitors, primary screen, biochemical, fluorescence Ex485/Em525; YopH tyrosine phosphatase [Yersinia enterocolitica]; inhibition, %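 (about 10 µM by stock and volumes)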; hit rate 0.16% among 140,000; AID 898, 2007;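 active = inhibition of 50% or more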;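 also: controls were vehicle for no effect and minimum signal wells for full effect; inactives centre near -20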
# RecA intein inh = Mtb RecA intein splicing inhibitors, primary screen, biochemical, fluorescence, HTS; inhibition, %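 (about 9 µM by stock and volumes)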; Protein RecA (Mycobacterium tuberculosis (strain ATCC 25618 / H37Rv)), P9WHJ3; hit rate 0.75% among 290,000; cell-free RecA intein splicing; in the data active = inhibition above about 30%; inconclusive = no clear call, values can overlap the other calls;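 also: 0% = vehicle wells and 100% = reference inhibitor control wells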
# Target sequence (P9WHJ3 whole entry, looked up): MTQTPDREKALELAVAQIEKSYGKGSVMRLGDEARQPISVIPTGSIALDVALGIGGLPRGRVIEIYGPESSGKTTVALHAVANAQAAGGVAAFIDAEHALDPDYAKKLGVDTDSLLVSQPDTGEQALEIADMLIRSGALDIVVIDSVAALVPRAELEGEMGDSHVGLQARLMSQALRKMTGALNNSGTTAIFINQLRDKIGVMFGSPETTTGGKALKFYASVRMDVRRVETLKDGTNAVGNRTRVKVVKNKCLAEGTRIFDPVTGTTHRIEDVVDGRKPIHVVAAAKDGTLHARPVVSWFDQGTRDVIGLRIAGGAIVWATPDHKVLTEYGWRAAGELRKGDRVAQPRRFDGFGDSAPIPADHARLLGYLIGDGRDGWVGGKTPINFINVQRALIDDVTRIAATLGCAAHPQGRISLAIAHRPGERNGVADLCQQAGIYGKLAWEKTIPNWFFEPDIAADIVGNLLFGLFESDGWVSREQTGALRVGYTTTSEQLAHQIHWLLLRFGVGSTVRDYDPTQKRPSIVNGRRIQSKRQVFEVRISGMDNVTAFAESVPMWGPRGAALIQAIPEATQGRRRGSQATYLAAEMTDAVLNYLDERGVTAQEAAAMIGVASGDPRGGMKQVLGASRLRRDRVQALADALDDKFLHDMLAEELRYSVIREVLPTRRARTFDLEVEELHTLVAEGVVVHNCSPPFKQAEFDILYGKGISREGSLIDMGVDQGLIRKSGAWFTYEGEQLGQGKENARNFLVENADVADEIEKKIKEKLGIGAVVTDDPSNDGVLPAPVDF
# Arbovirus inh repeat = recorded beside Arbovirus inh, whose call it bears; inhibition, %; measured here: 10K subset replicate screen; many hits read low in the repeat;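 first of two repeat runs on a subset; 0% = infected and 100% = uninfected wells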
# * marks the source's active call; other numbers are inactive results; ? = inconclusive; . = no result given. A portion of the library. The share of hits here may be higher or lower than overall.
SMILES,Arbovirus inh,Mtb bLac sens,Mtb growth,YopH inh,RecA intein inh,others
Cc1c(NC(=O)C2CCCNC2=O)c(=O)n(-c2ccccc2)n1C (stereo unspecified),3,-7,4%,-4,-1.1,
O=c1[nH]cccc1-c1nc2ccccc2n1Cc1ccc(Cl)cc1,.,-1,.,.,0.6,
Cc1cc(C)n(CCc2nc3c4ccccc4n(CC#N)c(=O)n3n2)n1,-4,-2,-10%,-26,-2.6,
CC(C)c1cc(C(F)(F)F)n2nc(C(=O)Nc3ccc(-n4cnnn4)cc3)cc2n1,.,-3,0%,.,-1.7,
CC1=CN2C(=N)/C(=C/c3cn(CCCOc4ccccc4C)c4ccccc34)C(=O)N=C2S1,3,7,-2%,-19,7.7,
Cc1cccc(C2C3=C(CCCC3=O)N=C3c4ccccc4C(=O)C32)c1 (stereo unspecified),.,4,-2%,.,-0.9,
CC1CCc2sc(C(=O)N/N=C/c3ccc([N+](=O)[O-])cc3)cc2C1 (stereo unspecified),-2,1,4%,-11,-1.4,
Cc1ccc(C(=O)O)cc1NC(=S)NC(=O)c1ccc(-c2ccc(Cl)cc2)o1,.,88,?,.,-2.6,
CC(C)c1ccc(NC2CCCN(C(=O)CCN3CCCC3=O)C2)cc1 (stereo unspecified),.,-3,.,.,-7.8,
COCC1CCCCN1C(=O)c1ccc2oc(CCCc3ccccc3)nc2c1 (stereo unspecified),.,?,.,.,3.7,
COc1cc(NS(=O)(=O)c2ccc(Cl)cc2)c(C(=O)O)cc1OC,3,6,3%,-42,1.9,
CCc1n[nH]c(=S)n1/N=C/c1c[nH]c2ccc(Br)cc12,-3,1,5%,.,2.4,
O=C1C2CC=C(Cl)CC2C(=O)N1CN(Cc1ccco1)CN1C(=O)C2CC=C(Cl)CC2C1=O (stereo unspecified),3,-9,-15%,-9,-3.2,
COc1ccc(N2CCN(Cc3nc4ccccc4[nH]3)CC2)cc1,.,2,.,.,1.1,
Cc1ccc(S(=O)(=O)C2(C(=O)NC3CCCCC3C)CC2)cc1 (stereo unspecified),3,4,1%,.,-1.4,
CCOC(=O)c1ccc(NC(=O)COc2cc(=O)n(CC)c3ccccc23)cc1,-5,5,-5%,-52,0.1,
CC(C)CC(NC(=O)OC(C)(C)C)C(=O)NC(C(=O)N1CCCC1C(N)=O)C(C)C (stereo unspecified),-2,-12,2%,1,-1.0,
N#Cc1c(-c2ccco2)cc(-c2ccccc2)[nH]c1=O,.,-9,-3%,.,-15,
Cc1cc(SCc2cc(=O)[nH]c3ccccc23)nc2ccccc12,-1,3,.,3,4.9,
CNC(=O)[C@@H]1C[C@H]1[C@@H](NC(=O)CNC(=O)OCc1ccccc1)c1ccccc1,.,-2,11%,.,-0.8,
CCn1c(CNC(=O)COc2ccc(C(C)C)cc2)nnc1SCC(=O)Nc1cc(F)ccc1C,-16,5,-1%,-13,2.3,
O=Cc1ccc(-n2cc(C=O)c3ccccc32)cc1,2,4,1%,.,-7.0,
N=C1C(c2nc3ccccc3s2)=C(O)CN1NC(=O)c1c[nH]c2ccccc12,-6,-3,4%,.,2.1,
O=c1oc2ccccc2cc1-c1csc(Cc2nc(-c3ccc(Cl)cc3)cs2)n1,-3,-4,-1%,-27,-1.8,
CC(=O)Nc1cccc(Oc2nc(-c3ccccn3)nc3ccccc23)c1,.,57,3%,.,0.4,

# The list goes on, starting with the last 4 of the part before.
SMILES,Arbovirus inh,Mtb bLac sens,Mtb growth,YopH inh,RecA intein inh,others
O=Cc1ccc(-n2cc(C=O)c3ccccc32)cc1,2,4,1%,.,-7.0,
N=C1C(c2nc3ccccc3s2)=C(O)CN1NC(=O)c1c[nH]c2ccccc12,-6,-3,4%,.,2.1,
O=c1oc2ccccc2cc1-c1csc(Cc2nc(-c3ccc(Cl)cc3)cs2)n1,-3,-4,-1%,-27,-1.8,
CC(=O)Nc1cccc(Oc2nc(-c3ccccn3)nc3ccccc23)c1,.,57,3%,.,0.4,
COc1ccc(-c2c(C#N)c(N)nc3c2CCCC3)cc1OC,.,48,1%,-13,-2.4,
O=C(C1CCCN(S(=O)(=O)c2cnc[nH]2)C1)N(CCc1ccccc1)Cc1ccccc1 (stereo unspecified),3,-1,-8%,-30,0.2,
COc1ccc(O)c(/C=N/c2nc3ccccc3n2C)c1,.,4,.,.,-1.3,
Cc1cc(Cn2ccnc2)c(C)cc1Cn1ccnc1,7,-10,-5%,-19,-0.7,
O=C(CCCC(=O)OCC(F)(F)C(F)F)Nc1nccs1,2,2,7%,-44,3.9,Arbovirus inh repeat=0
CCOc1ccc(NC(=O)C(c2ccccn2)N(C(=O)CCl)c2ccc(F)cc2)cc1 (stereo unspecified),-12,-7,?,3,66*,
CCCN(CC(=O)Nc1c(C)cccc1CC)C(=O)SCC,-1,-14,0%,-14,-1.7,
Cc1[nH]c2ccccc2c1/C=N/Nc1nc(N2CCCCC2)nc(N2CCCCC2)n1,-16,-3,7%,-14,-2.8,
CCc1cc(C(=O)N=Nc2c(O)[nH]c3ccc([N+](=O)[O-])cc23)c2ccccc2n1,23,58,3%,-12,19,
Cc1ccc(/C=C2/NC(=O)[C@H](C)NC2=O)cc1,.,-3,.,.,0.2,
COc1ccc(C(C(=O)OC(C)CN(C)C)c2ccccc2)cc1 (stereo unspecified),7,-10,-2%,-36,0.2,
COc1ccccc1N(Cc1cc2ccc(C)cc2[nH]c1=O)C(C)=O,.,-5,.,.,0.0,
O=C(c1cccnc1)N(Cc1ccccc1)C1(C(=O)Nc2ccccc2)CCCCC1,2,-2,-1%,-27,0.2,
S=c1[nH]nc(-c2cccs2)n1/N=C/c1c(Cl)cccc1Cl,4,0,-9%,.,3.5,
O=C(Nc1ccc(N2CCN(C(=O)c3cccs3)CC2)cc1)c1ccccc1Cl,.,3,.,.,0.2,
COc1cc(C2(c3ccc(O)c(OC)c3)C(=O)Nc3c(C)cc(Br)cc32)ccc1O,.,-5,.,.,42*,
N#Cc1cccnc1Nc1ccc(Cl)cc1,0,-3,0%,.,9.3,
Cc1ccc(CNC(=O)CCS(=O)(=O)c2ccc(Br)cc2)cc1,2,.,3%,.,0.2,
CCO[C@H]1OC(C(=O)NCc2nc3ccccc3[nH]2)=C[C@@H](C2CC2)[C@@H]1CCCO,-6,0,12%,.,1.4,
CN1CCN(/C(=N\S(=O)(=O)c2ccc(F)cc2)c2ccccc2)CC1,4,-5,-1%,1,.,
CCN1C(=O)c2cccc3c(Cl)ccc(c23)C1=O,5,-6,-3%,.,1.3,
Cn1cc(CCNC(=O)c2ccc3nc(Cc4ccccc4F)oc3c2)cn1,.,5,.,.,-3.3,
COc1ccc(C(=O)CSc2cc(C)nc(SCC(=O)c3ccc(C)cc3)n2)cc1,-3,-13,-4%,7,-3.9,
Cc1ccc(-c2cc(C(=O)Nc3cc(C)ccc3O)no2)cc1,.,3,.,.,3.6,
CC(=O)Nc1nc(NC(=O)C(Cl)(Cl)Cl)n(-c2ccccc2)n1,.,2,2%,.,-0.9,

# 3 entries drawn at random from those above:
SMILES,Arbovirus inh,Mtb bLac sens,Mtb growth,YopH inh,RecA intein inh,others
COc1ccc(C(C(=O)OC(C)CN(C)C)c2ccccc2)cc1 (stereo unspecified),7,-10,-2%,-36,0.2,
CCOc1ccc(NC(=O)C(c2ccccn2)N(C(=O)CCl)c2ccc(F)cc2)cc1 (stereo unspecified),-12,-7,?,3,66*,
O=C(CCCC(=O)OCC(F)(F)C(F)F)Nc1nccs1,2,2,7%,-44,3.9,Arbovirus inh repeat=0

# Following part:
SMILES,Arbovirus inh,Mtb bLac sens,Mtb growth,YopH inh,RecA intein inh,others
COc1cc(OC)c(OC)cc1CNc1nnnn1C,.,11,.,.,-1.5,
CCc1ccc(-c2ccc3nnc(SC)n3n2)cc1,.,35,.,.,-1.4,
COc1ccc2nc(C)cc(Sc3nc4ccccc4s3)c2c1,.,11,1%,.,38*,
O=C(Cn1cc([N+](=O)[O-])cn1)Nc1ccn(Cc2c(F)c(F)c(F)c(F)c2F)n1,18,-1,2%,-20,6.4,
CN(C)CCN(C(=O)c1ccc(S(=O)(=O)N(C)C)cc1)c1nc2cc3c(cc2s1)OCCO3,2,1,2%,.,-0.5,
O=C(c1ccncc1)N1N=C(c2ccc(Br)cc2)CC1c1ccccc1O (stereo unspecified),.,64,.,.,20,
CCOc1cccc(NC(=O)C2CC(=O)NC(=Nc3ccccc3)S2)c1 (stereo unspecified),3,3,2%,-33,-2.7,
COC(=O)C1=C(N)N(c2ccccc2F)C2=C(C(=O)CC(C)(C)C2)C1c1ccc(OC)c(OC)c1 (stereo unspecified),1,-2,-5%,-21,4.0,
C=CCNC(=O)c1ccccc1NC(=O)COc1ccccc1,-3,0,14%,.,1.0,
CN1CCN(C(=O)c2cc([N+](=O)[O-])ccc2Cl)CC1,.,1,.,.,-1.1,
COc1ccc(-c2cc(=O)oc3cc(OCC(C)=O)ccc23)cc1,-6,2,-8%,-26,1.0,
N#Cc1ccccc1CN1C(=O)S/C(=C/c2cccn2-c2ccc(C(=O)O)cc2)C1=O,8,1,-4%,-33,4.4,
COC(=O)CCc1sc(Nc2ccccc2)nc1-c1ccc(OC)cc1,20,80,19%,-34,2.0,
Cc1ccc(/C(N)=N/OC(=O)c2ccc3ccccc3c2)cc1,.,6,.,.,-4.7,
c1coc(-c2nc3nc4ccccc4n3nc2-c2ccco2)c1,-11,0,3%,-4,16,
Cn1c(-c2ccccc2)c(CCO)c2ccccc21,2,52,-5%,-5,0.6,
C/C=C/c1ccccc1OCc1ccc(C(=O)OC)o1,-3,63,-5%,-34,6.4,
CC1CC(C)(C)N(C(=O)CSc2ccc(-c3ccc(F)cc3)nn2)c2ccccc21 (stereo unspecified),-28,7,5%,-9,5.5,
CCn1nnc(-c2ccccc2NS(=O)(=O)c2ccc(S(=O)(=O)N(C)C3CCCCC3)cc2)n1,-8,3,-3%,-5,5.0,
CN1CCN(CC(=O)O)CC1,6,-4,-2%,12,.,
CCCCNc1c(-c2cccc(-c3cc(C(C)=O)cs3)c2)nc2ccc(C)cn12,.,55,.,.,-1.9,
Cc1ccccc1CS(=O)(=O)Cc1ccc(C(=O)NCCCN2CC(C)CC(C)C2)o1 (stereo unspecified),2,-8,-4%,.,-1.9,
N/C(=N\[N+](=O)[O-])N1CCN(C(=O)OC2CCCC2)CC1,.,-1,.,.,-2.3,
CCN(CC)C(=O)Cc1c(OC)ccc2cc(Br)ccc12,5,3,11%,.,-1.1,
CC(=O)Nc1ccc(C(=O)NC2CCCC2)cc1,-1,-3,-3%,-142,.,

# Additional structures:
SMILES,Arbovirus inh,Mtb bLac sens,Mtb growth,YopH inh,RecA intein inh,others
O=C(COC(=O)c1ccccc1-c1nc2ccccc2s1)Nc1ccccc1C(F)(F)F,14,7,-9%,-19,12,
O=c1[nH]c2cccnc2n1Cc1ccco1,0,1,0%,-17,-4.2,
NC(=O)c1sc2nc(N3CCOCC3)c3c(c2c1N)CCCC3,13,15,-2%,-28,-5.6,
COC(=O)NCC(c1cccnc1)N1CCOCC1 (stereo unspecified),7,-3,3%,-25,2.4,Arbovirus inh repeat=2
OCC[C@@H]1C[C@@H](O)[C@H](O)[C@]2(Cc3ccccc3CO2)O1,.,-4,.,.,-2.1,
CCc1ccc(/C=N/NC(=O)c2cc(C3CC3)nc3ccc(Br)cc23)s1,-25,63,14%,-28,-1.4,
CCCC[n+]1ccn(C2=C([O-])c3ccccc3C(=O)/C2=N\S(=O)(=O)c2ccc(Br)cc2)c1,-13,-4,-1%,6,6.1,
CC1=C(CC(=O)c2ccccc2)C(=O)c2ccccc2C1=O,-29,100,.,-29,43*,
CCOc1ccccc1C(C(=O)NC1CCCC1)N(Cc1ccco1)C(=O)CNC(=O)c1ccco1 (stereo unspecified),-19,-7,2%,-12,.,
NC(=S)n1[nH]c(-c2ccccc2)c(N=Nc2ccccc2C(=O)N2CCOCC2)c1=O,-3,3,2%,.,.,
Cc1cccc(CN2CCN(CC(C)C)C(CCO)C2)n1 (stereo unspecified),.,-3,-6%,.,-1.9,
COc1ccc(CNc2nc3c(c(=O)n(Cc4ccc(Cl)cc4)c(=O)n3C)n2C)cc1,8,-2,34%,-27,2.2,
O=C(NNS(=O)(=O)c1ccc(F)cc1)C1CCN(S(=O)(=O)c2ccccc2)CC1,-2,-12,-1%,.,-3.2,
O=C1CCN(S(=O)(=O)c2ccccc2)CCN1CCOCc1ccccc1,.,-10,-14%,.,1.8,
O=C(N/N=C\c1ccc(Cl)cc1)C1=NOC2COC3(CCN(c4ccc([N+](=O)[O-])cc4)CC3)OCC12 (stereo unspecified),.,18,.,.,-1.1,
CCN1CCN(CC(O)COC(C)C)CC1 (stereo unspecified),0,-7,-8%,-23,-4.5,
CCOCCCNC(=O)c1ccccc1NC(=O)C1=C(C)OCCS1,.,0,.,.,0.6,
